VCAM-1 up: boosters of cytokine-driven VCAM-1 levels – cell-based, plate reader, pooled HUVEC, TNFa stimulus (AID 455); HUVEC TNFa-induced VCAM-1 immunofluorescence, plate reader; numbers were filed only for top-ranked candidate wells; augmentation, % at 5 µM; actives 0.2% (n = 10,000);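 active means a compound raising TNF-alpha-driven VCAM-1 surface staining, with its hit status upheld on visual or statistical review; inactive means the rest, including hits rejected on review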;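 further: 0% = TNFa with vehicle and 100% = strongest image-checked hit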
Proteasome disasm: blocks ATP-dependent breakdown of the yeast 26S proteasome | anti-FLAG beads, GFP-proteasome disassembly, flow cytometry | inhibition of disassembly, % (no concentration beside the values) | actives 0.2% (n = 24,000) | AID 751;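 active means above 40%; inconclusive means likely self-fluorescent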;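 further: plate controls were ATP control with full disassembly for no effect and ATP-gamma-S intact proteasomes for full effect; higher percent means more bead fluorescence retained so stronger block of disassembly; stock transfer was 100 nL into about 10 µL; wells with too few beads may also be inconclusive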
* = called active by the depositor; i = inactive; ? = inconclusive; . = not tested or not shown. A portion of the library, so the mix of outcomes need not match the whole.

SMILES	VCAM-1 up	Proteasome disasm
Nc1nnc(SCC(=O)N2CCN(c3ccccc3)CC2)n1-c1ccccc1	i	-2.4
COc1cccc(CNC(=O)C2CCCN(S(=O)(=O)c3c(C)n[nH]c3C)C2)c1 (stereo unspecified)	.	-2.3
CCc1nnc(NC=C2C(=O)OC(C)(C)OC2=O)s1	.	0.1
CCOC(=O)N1CCC(NC(=O)CCC(=O)N2CCOc3ccccc32)CC1	.	-1.3
Cc1ccc(C)c(N2CCN(C(=O)C3CCCN(S(=O)(=O)c4cnc[nH]4)C3)CC2)c1 (stereo unspecified)	.	-0.5
O=C(CCNS(=O)(=O)c1cccc2nonc12)NCc1cccs1	.	-1.4
Cc1cccc(Cc2c(C)nc3c(C(=O)NCc4ccco4)cnn3c2C)c1	.	0.6
C=CCn1c(Br)nc2c1c(=O)[nH]c(=O)n2C	i	-1.6
CC(=O)c1sc(N2C(=O)c3oc4ccccc4c(=O)c3C2c2ccc(C)o2)nc1C (stereo unspecified)	.	-0.3
N#Cc1nc(N2CCCC2)nc(N2CCCC2)n1	.	0.5
Cc1cc(C)n(-c2ccc3cccc(NS(C)(=O)=O)c3n2)n1	i	2.5
COCCn1c(=O)[nH]c2cc(C(=O)NCCN3CCN(c4ccc(OC)cc4)CC3)ccc2c1=O	.	-0.1
Cn1cccc1Cc1nnc(SCC(=O)NC2CCCC2)n1CCc1ccccc1	.	1.0
CCOc1nc(OCC)nc(N2CCC(C)CC2)n1	i	2.0
O=C(O)C1CCCCC1C(=O)Nc1ccccn1 (stereo unspecified)	i	-0.6
COc1ccc(NC(=O)C2CC(c3cc(OC)c(OC)c(OC)c3)=NO2)cc1OC (stereo unspecified)	.	0.0
CN(C1CCCCC1)S(=O)(=O)c1ccc2c(c1)c(=O)c(C(=O)NCCCN1CCCC1)cn2C	.	7.9
CSc1nc2ccccc2n1CC(=O)Nc1ccc(C)c(C)c1	.	0.7
CC1CC(C)CN(C(=O)C(NS(=O)(=O)c2ccc3c(c2)oc(=O)n3C)C(C)C)C1 (stereo unspecified)	.	0.1
c1cc(C2CCCCC2)ccc1Oc1nc(N2CCOCC2)nc(N2CCOCC2)n1	.	0.2

6 entries from above, reformatted:
Second line of a record: VCAM-1 up, Proteasome disasm
O=C(O)C1CCCCC1C(=O)Nc1ccccn1 (stereo unspecified)
    i, -0.6
COCCn1c(=O)[nH]c2cc(C(=O)NCCN3CCN(c4ccc(OC)cc4)CC3)ccc2c1=O
    ., -0.1
Cc1ccc(C)c(N2CCN(C(=O)C3CCCN(S(=O)(=O)c4cnc[nH]4)C3)CC2)c1 (stereo unspecified)
    ., -0.5
C=CCn1c(Br)nc2c1c(=O)[nH]c(=O)n2C
    i, -1.6
Nc1nnc(SCC(=O)N2CCN(c3ccccc3)CC2)n1-c1ccccc1
    i, -2.4
CC(=O)c1sc(N2C(=O)c3oc4ccccc4c(=O)c3C2c2ccc(C)o2)nc1C (stereo unspecified)
    ., -0.3

(further entries)
SMILES	VCAM-1 up	Proteasome disasm
O=C(Cc1nn[nH]n1)NCCC1=CCCCC1	i	3.6
O=C(Cn1nnc2ccccc21)C1CC1	.	0.3
Cn1c(C(=O)NCCCN2CCN(c3cccc(Cl)c3)CC2)cc2c(=O)n(C)c3ccccc3c21	.	-2.1
Cc1cccc(NC(=O)CS(=O)(=O)c2cn(C)c3ccccc23)c1	i	1.0
Nc1c(C(O)(C(F)(F)F)C(F)(F)F)ccc2ccccc12	.	-1.9
[O-]/[N+](=C/c1ccc(F)cc1)c1ccccc1	.	-0.9
Cc1ccc2oc(C(=O)Nc3c(C)n(C)n(-c4ccccc4)c3=O)c(C)c2c1	i	-0.2
CCOc1ccc(NC(=O)CCS(=O)(=O)c2cccc3nsnc23)cc1	.	-1.9
CSC1=NCCN1C(=O)c1ccc(S(=O)(=O)N2CCOCC2)cc1	.	-0.5
COC(=O)CC1SC(=O)NC1=O (stereo unspecified)	i	2.4
C=CCn1cc(C(=O)NCCCOCC)c(=O)c2cc(S(=O)(=O)N(CC)CC)ccc21	.	-1.3
Clc1ccc(-c2nnc3sc(-c4ccc(Br)o4)nn23)cc1	i	-2.5
Cc1c(NC(=O)C2CCCN(S(=O)(=O)c3cnc[nH]3)C2)c(=O)n(-c2ccccc2)n1C (stereo unspecified)	.	-1.4
COc1ccc2cc3cc(C(=O)NCCN4CCN(Cc5ccccc5)CC4)oc3nc2c1	.	0.8
CCS(=O)(=O)N1CCC(C(=O)NCc2ccc(F)cc2)CC1	.	-0.1
O=C(Cn1c(-c2cncs2)nc2ccccc21)NCCc1ccccc1	.	0.9
O=c1c2nnn(Cc3ccccc3)c2ncn1-c1ccccc1	i	-0.2
Cc1onc(-c2ccccc2)c1C(=O)NC(CC(=O)O)c1ccc(OC(C)C)cc1 (stereo unspecified)	.	2.0
O=c1nc(N2CCOCC2)ccn1-c1nc(-c2ccccc2)oc1-c1ccccc1	.	1.4
CCN1C(=O)/C(=C2/Sc3ccc(OC)cc3N2C)SC1=Nc1ccc(C(C)=O)cc1	.	4.8
O=C(CCn1cccc1)Nc1cc(F)ccc1F	.	-0.5
CCOC(=O)c1ccc(COC(=O)c2cc3ccccc3oc2=O)o1	i	1.4
Cc1nc2nc[nH]n2c(=O)c1NC(=O)c1cccc(OCC(C)C)c1	.	0.7
CCCN1CCN(CCCNC(=O)C2CCCN(c3nnc(-n4cccc4)s3)C2)CC1 (stereo unspecified)	.	-1.7
CC1CCN(C(=O)C2CC(c3ccc(F)cc3)=NO2)CC1 (stereo unspecified)	.	0.2
COc1ccc(-c2c(C)oc3c(CN4CCN(C)CC4)c(O)ccc3c2=O)cc1	.	2.3
O=C1C2C3C=CC(C3)C2C(=O)N1c1ccc2c(c1)CCC2 (stereo unspecified)	.	-2.2
O=C(CSc1nc2c(c(=O)n1-c1ccc(F)cc1)SCC2)NCc1ccco1	.	0.6
COc1ccc(S(=O)(=O)NC(CC(=O)NCc2ccco2)c2ccco2)cc1 (stereo unspecified)	i	-0.7
Brc1cnn(-c2nc(N3CCOCC3)nc(N3CCOCC3)n2)c1	.	-0.4
COc1cccc(-c2nc(CS(=O)CC(=O)NCc3ccc4c(c3)OCO4)c(C)o2)c1 (stereo unspecified)	.	3.4
C=CCOc1ccc(/C(O)=C2\C(=O)C(=O)N(CCOC)C2c2cccnc2)cc1 (stereo unspecified)	i	0.0
C[C@H](NC(=O)OC(C)(C)C)C(=O)NCC1CCC(C(=O)O)CC1 (stereo partly specified)	i	0.6
CC(=O)[C@H]1CC[C@H]2[C@@H]3CCC4=CC(=O)CC[C@]4(C)[C@H]3CC[C@]12C	i	-0.1
Cc1n[nH]c(C)c1S(=O)(=O)N1CCCC(C(=O)N2CCN(c3ccc(Cl)cc3)CC2)C1 (stereo unspecified)	.	0.2
COC(=O)c1ccc2c(=O)n(Cc3ccc4c(c3)OCO4)c(SCC(=O)N3CCCC3)nc2c1	.	2.4
CSc1c(CC(=O)NCCO)n(C)c2ccccc12	i	-2.4
Cc1nn(C)c(C)c1S(=O)(=O)N1CCC(C(=O)NC(C)c2ccccc2)CC1 (stereo unspecified)	.	0.5
O=S(=O)(NC1CCN(Cc2ccccc2)CC1)c1cccc2cccnc12	.	-1.6
Cc1ccc(S(=O)(=O)NCC2CCC(C(=O)NCc3ccco3)CC2)cc1 (stereo unspecified)	.	-1.2
CCOC(=O)c1[nH]c(C)c(C(=O)NCCc2ccc(OC)cc2)c1C	.	-5.3
COC(=O)CN(c1nc(C)c(Cl)c(OC)n1)S(=O)(=O)c1ccc(C)cc1	i	0.8
Cc1cccc(COc2ccc(/C(O)=C3\C(=O)C(=O)N(CCN(C)C)C3c3ccncc3)cc2)c1 (stereo unspecified)	i	2.6
COc1ccc(CCn2c(SCC(=O)Nc3cc(C)on3)nc3ccsc3c2=O)cc1OC	.	0.3
CCOC(=O)c1c(C)oc2c1c(/C=N/c1ccccn1)c(O)c1ccccc12	.	?
O=C(CN1CCOc2ccccc21)NCc1ccc(F)cc1	.	-1.2
CCOC(=O)c1cc(-c2nnc(-c3ccc(Oc4ccccc4)cc3)o2)c(C)nc1C	i	0.5
COc1ccc(C2C(C(=O)Nc3cccnc3)=C(C)Nc3nc(-c4cccs4)nn32)cc1OC (stereo unspecified)	i	-0.3
CSc1cccc(NC(=O)Cn2cccc2)c1	.	-1.1
O=C(c1ccco1)N1CCN(c2c(-c3ccccc3)c3cc(Cl)ccc3[nH]c2=O)CC1	i	0.6
Remaining list, next part
SMILES	VCAM-1 up	Proteasome disasm
CC(NC(=O)c1cc2c(=O)n(C)c3ccccc3c2n1C)c1ccc2c(c1)OCCO2 (stereo unspecified)	i	3.0
CCCc1[nH]nc2c1C(CCc1ccccc1)C(C#N)=C(N)O2 (stereo unspecified)	.	1.6
O=C(OC1CCCCC1)c1ccc2c(c1)C1C=CCC1C(C(=O)O)N2 (stereo unspecified)	.	-0.3
Cc1c(NC(=O)c2cnn3c2NC(c2ccco2)CC3C(F)(F)F)c(=O)n(-c2ccccc2)n1C (stereo unspecified)	i	-1.3
COc1ccc(C2CC(c3cc(Br)ccc3F)n3nnnc3N2)cc1 (stereo unspecified)	.	1.9
CCOC(=O)N1CCN(C(=O)c2oc3ccc(S(=O)(=O)N4CCCCC4)cc3c2C)CC1	.	1.7
COc1ccc(NC(=O)c2cc(C3CC3)on2)c(OC)c1	i	2.1
COc1cccc(Cn2nnc(C(=O)NCc3ccccc3Cl)c2N)c1	.	-2.0
Cc1ccc2c(c1)NCC(C(=O)NC1CCCCC1)O2 (stereo unspecified)	.	2.1
c1ccc(-n2nnnc2OCCOc2nnnn2-c2ccccc2)cc1	i	-1.6

5 neighbouring records out of the list so far, quoted:
SMILES	VCAM-1 up	Proteasome disasm
O=C(OC1CCCCC1)c1ccc2c(c1)C1C=CCC1C(C(=O)O)N2 (stereo unspecified)	.	-0.3
Cc1c(NC(=O)c2cnn3c2NC(c2ccco2)CC3C(F)(F)F)c(=O)n(-c2ccccc2)n1C (stereo unspecified)	i	-1.3
COc1ccc(C2CC(c3cc(Br)ccc3F)n3nnnc3N2)cc1 (stereo unspecified)	.	1.9
CCOC(=O)N1CCN(C(=O)c2oc3ccc(S(=O)(=O)N4CCCCC4)cc3c2C)CC1	.	1.7
COc1ccc(NC(=O)c2cc(C3CC3)on2)c(OC)c1	i	2.1

Next part
SMILES	VCAM-1 up	Proteasome disasm
COC(=O)CN1C(=O)CC(C)(C)S(=O)c2ccccc21 (stereo unspecified)	i	-0.2
Cc1ccccc1-n1c(SCc2cc(=O)n3ccccc3n2)nc2[nH]ncc2c1=O	.	-0.8
CCC(=O)c1ccc(O)cc1	i	-0.8
CSc1ccc(Cn2nnc(C(=O)NCc3ccccc3)c2N)cc1	i	-0.1
Cn1cc(CNC(=O)C2c3ccccc3Oc3ccccc32)cn1	.	0.8
CCOc1ccccc1NC(=O)CC1Nc2cc(C)c(C)cc2NC1=O (stereo unspecified)	i	2.2
Cc1cccc(-n2nc3c(c2NC(=O)c2ccc(Br)o2)CSC3)c1	.	-0.1
Cc1ccccc1C(OCCN(C)C)c1ccccc1 (stereo unspecified)	i	0.5
O=c1c2nnn(Cc3ccc(Cl)cc3)c2ncn1Cc1ccc(F)cc1	i	0.3
CC1=C(C(=O)OCc2ccccc2)C(c2ccco2)n2ncnc2N1 (stereo unspecified)	i	-0.5
O=C(Cn1cnc2c(nnn2Cc2ccccc2)c1=O)c1ccc(Cl)cc1	i	-0.9
O=C(O)CC1(Cc2nc(-c3cccs3)no2)CCCC1	.	0.3
O=C(CCCn1c(SCC(=O)c2ccc(F)cc2)nc2ccccc2c1=O)NCc1ccco1	.	-0.2
COc1ccc(N2C(=O)CCC(C(=O)NCCN3CCOCC3)C2c2ccc(OC)c(OC)c2)cc1 (stereo unspecified)	.	0.3
O=C(NCCCN1CCCCCC1)C1CC(=O)N(C2CCCC2)C1 (stereo unspecified)	.	-1.6
COc1ccc(Nc2cc(C(=O)NCCCN3CCN(C)CC3)c3ccccc3n2)c(OC)c1	.	1.9
COc1ccc(CC(=O)NCc2ccccc2)cc1S(=O)(=O)N1CCOCC1	i	-1.2
CC(C)Cc1n[nH]c(=O)[nH]1	i	-2.1
Cn1cc(-c2nc3ccccc3[nH]2)c2ccccc21	i	4.2
Cc1cc2cc(CNC(=O)c3ccc4c(c3)OCO4)ccc2n1C	.	0.5
CCNc1nc(Oc2ccc(=O)n(C)n2)nc(N2CCOCC2)n1	.	0.2
CCCCn1c(SCC(=O)Nc2cccc(OC)c2)nc2ccc(N3CCOCC3)cc2c1=O	.	-0.1
N#CC1=C(SCC(=O)NC23CC4CC(CC(C4)C2)C3)NC(=O)C(C#N)C12CCCCC2 (stereo unspecified)	i	6.1
O=C1NC2c3ccccc3C(=O)N2c2c1cnn2-c1ccccc1 (stereo unspecified)	i	-2.4
CCCSC1=C(C#N)C(c2cc(OC)ccc2OC)CC(=O)N1 (stereo unspecified)	i	-0.1
Cc1cc(N2CCC3(CC2)OCCO3)n2nc(C)c(-c3ccc(Cl)cc3)c2n1	i	0.3
CN(Cc1ccco1)C(=O)c1ccc(N2CCCC2=O)cc1	.	-2.3
CCOC(=O)C(CC)n1cnc2c(nnn2-c2ccc(C)cc2)c1=O (stereo unspecified)	.	-0.6
O=C(Nc1cccc(OC(=O)c2ccco2)c1)c1ccco1	.	0.1
Cc1ccc(NC(=O)c2oc3ccc(S(=O)(=O)N4CCOCC4)cc3c2C)cc1C	i	0.4
CCN(Cc1ccccc1)C(=O)CSc1nc(C)cc2c1C(=O)OC2	.	-3.5
O=C(O)c1cc(-c2cccs2)nc2cc3c(cc12)OCCO3	.	0.3
CCN(CC)CCCNC(=O)c1cn(C)c2ccc(S(=O)(=O)N(C)C)cc2c1=O	i	-1.0

From PubChem
